D2 potentiator: Beta-Arrestin HTS for Positive Allosteric Modulators of the Human D2 Dopamine Receptor: Potentiators; 360,000 tested, 0.23% active; AID 624464, 2012; DiscoveRx D2 beta-arrestin cells, luminescence, 90 min; 100% = 57 uM dopamine signal; potentiation, % (concentration not given with the values); D(2) dopamine receptor (Homo sapiens), P14416; active = potentiation of 50% or more; inconclusive = 30% to 50%; inactive = 30% or less;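 note: compound concentration not given in the record; tested on top of an EC20 dose of dopamine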
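D2 cells co-treated with compound plus 50 nM dopamine (EC20) for 90 min at 37 deg C to detect potentiation. Beta-arrestin recruitment was read as enzyme-fragment luminescence after 1 h at ambient temperature. Full response was set by 57 uM dopamine.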
PINK1 modulator: A Quantitative High throughput Screen to Identify Chemical Modulators of PINK1 Expression | Potency, µM (doses to about 76.6 µM), for the others: top-dose activation (PINK1 increase), actives largely listed as activators | PINK1 immunofluorescence, high-content cytometry, 24 h | 410,000 tested, 0.2% active; active = well fitted activation curve with a large enough effect; inconclusive = small, poorly fitted or top-dose-only effect; inactive = flat fitted curve, though single readings scatter; cell line not stated here;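 note: potency is the fitted concentration of half-maximal effect; % of control where 0% means no effect; nearly all actives have a fitted effect of over 65% in size; a mitochondrial uncoupler was the plate control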
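PINK1 protein, normally rapidly degraded, was detected by immunofluorescence after 24 hour compound treatment of a stable cell line. Titration data (5 concentrations) came from laser-scanning cytometry, with CCCP-treated wells as controls.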
Sfp PPTase inh: qHTS Assay for Inhibitors of Bacillus subtilis Sfp phosphopantetheinyl transferase (PPTase) | Biochemical Sfp PPTase activity, qHTS | 310,000 tested, 3.5% active | AID 1490, 2009 | Potency, µM, for inactives: max response, negative = inhibition, hits mostly inhibitors | 4'-phosphopantetheinyl transferase ffp (Bacillus subtilis), Q9F4F7; active = well fitted inhibition curve with a large enough effect; inconclusive = small, poorly fitted or top-dose-only effect, or another doubt; inactive = no such curve, though single readings can be large or run the other way;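 note: the enzyme is Sfp with the accession as filed and its product quenches rhodamine fluorescence; potency is the fitted concentration of half-maximal effect; 0% = enzyme reaction without inhibitor and -100% = no enzyme wells; top concentration of the series not given in the record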
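Reaction rates are the 30-min fluorescence difference (ex 525, em 598 nm) in wells containing 15 nM Sfp, 5 uM rhodamine-CoA and 12.5 uM BHQ-2-YbbR at pH 7.6 with 10 mM MgCl2.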
Six1-Eya2 blk: qHTS Assay for Inhibitors of the Six1/Eya2 Interaction. AlphaScreen GST-Six1/His-Eya2 binding, biochemical; hits give low values; control for the full effect not named in the record. activity change, % (concentration not given with the values). Homeobox protein SIX1 (Homo sapiens) + Protein phosphatase EYA2 (Homo sapiens), …. AID 651725, 2012. 360,000 tested, 0.56% active; in the data active = activity change below about -65%; inconclusive = about -30% to -65%; inactive = above about -30%; note: % is set by controls: 0 for no effect and ±100 for the full control effect
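Compounds are tested against tagged Six1 and Eya2 proteins bridged by glutathione donor and nickel acceptor beads; after a one-hour incubation at 37 °C without light, AlphaScreen emission is recorded.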
TRPV1 PAM: HTS Assay for Compounds that Act as Potentiators of the Vanilloid Receptor 1; Transient receptor potential cation channel subfamily V member 1 (Homo sapiens), Q8NER1; TRPV1-expressing cells, Fluo-8 calcium influx, capsaicin EC20 potentiation; host cell line not named in the record; control for the full effect not named in the record; potentiation, % at 8.33 µM; 320,000 tested, 0.02% active; AID 540277, 2011; active means potentiation above 80%; inconclusive means 30% to 80%; inactive means below 30%; note: 0% is about no effect
Target sequence (Q8NER1 whole entry, looked up): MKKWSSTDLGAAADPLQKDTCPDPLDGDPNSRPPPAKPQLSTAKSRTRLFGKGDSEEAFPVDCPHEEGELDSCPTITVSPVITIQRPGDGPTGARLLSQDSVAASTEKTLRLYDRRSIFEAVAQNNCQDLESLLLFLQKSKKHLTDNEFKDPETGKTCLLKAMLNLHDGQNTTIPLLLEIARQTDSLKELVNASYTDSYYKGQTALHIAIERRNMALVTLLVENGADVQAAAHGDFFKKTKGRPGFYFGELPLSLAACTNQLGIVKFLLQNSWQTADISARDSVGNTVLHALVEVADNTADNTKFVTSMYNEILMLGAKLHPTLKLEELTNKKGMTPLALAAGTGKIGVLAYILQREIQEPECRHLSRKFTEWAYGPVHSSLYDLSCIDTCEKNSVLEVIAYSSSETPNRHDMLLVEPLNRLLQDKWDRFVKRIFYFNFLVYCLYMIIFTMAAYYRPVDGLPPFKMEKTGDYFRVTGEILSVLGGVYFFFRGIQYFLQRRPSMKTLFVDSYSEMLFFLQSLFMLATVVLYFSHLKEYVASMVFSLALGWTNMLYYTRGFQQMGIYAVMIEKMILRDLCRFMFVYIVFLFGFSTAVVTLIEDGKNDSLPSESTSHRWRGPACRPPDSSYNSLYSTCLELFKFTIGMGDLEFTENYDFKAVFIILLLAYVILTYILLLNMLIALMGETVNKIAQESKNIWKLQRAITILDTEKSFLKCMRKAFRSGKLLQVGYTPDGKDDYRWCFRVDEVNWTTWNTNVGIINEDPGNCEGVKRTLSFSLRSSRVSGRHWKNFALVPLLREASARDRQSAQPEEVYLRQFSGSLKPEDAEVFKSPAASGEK
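Cells expressing TRPV1 were dye-loaded with Fluo-8 and read kinetically: 10 s baseline, 3 min after compound (agonist portion), then 2 min after EC20 capsaicin (allosteric enhancer portion). Calcium-bound dye fluorescence at 480/520 nm.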
CtBP-E1A inh: qHTS Assay for Inhibitors of the CtBP/E1A Interaction | activity change, % (no concentration beside the values) | CtBP / adenovirus E1A interaction (AlphaScreen) | 340,000 tested, 0.49% active | AID 651724, 2012 | AlphaScreen GST-E1A/His-CtBP binding, 1536-well; hits give low values; control for the full effect not named in the record; in the data active means activity change below about -65%; inconclusive means about -30% to -65%; inactive means above about -30%; note: % is set by controls: 0 for no effect and ±100 for the full control effect; compound concentration not given in the record
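Steps: dispense buffer (Tris pH 8.0, NaCl 300 mM, TCEP 1 mM, BSA, Tween 20); add 5X protein mix (GST-E1A, His-CtBP, 125 nM each); pin 23 nL compound; 2 h at 37 °C, dark; add 5X beads (50 ug/mL); 1 h; read.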
D2 ag: Beta-Arrestin HTS for Positive Allosteric Modulators of the Human D2 Dopamine Receptor: Agonists; activation, % (concentration not given with the values); D(2) dopamine receptor (Homo sapiens), P14416; DiscoveRx PathHunter D2 beta-arrestin, luminescence, 90 min; 100% = 57 uM dopamine signal; 360,000 tested, 0.084% active; AID 624465, 2012; in the data active = activation above about 40%; inconclusive = about 15% to 40%; inactive = below about 15%; note: compound concentration not given in the record; the text of the record calls up to 30% inactive
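Agonist mode: compounds alone added to overnight-plated D2 PathHunter cells for 90 min at 37 C, with 57 uM final dopamine (EC100) defining full response. Beta-arrestin recruitment detected by chemiluminescent reagent, read after 1 h at ambient temperature.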
The depositor's hits bear a star; ? = inconclusive; / = no result given; & = joins results of further samples; [ ] = another dose, or the depositor's remark. Not a hit list (roughly 3.7% active in at least one column).

SMILES | D2 potentiator | PINK1 modulator | Sfp PPTase inh | Six1-Eya2 blk | TRPV1 PAM | CtBP-E1A inh | D2 ag
COc1ccc(N2C[C@H](C)[C@@H](CC(=O)Nc3ccc(Br)cc3)C2=O)cc1 | 1 | 3.4% | / | 13 | / | 1 | -9.9
C/C(=N\N=C(N)N)c1cccc(Cl)c1 | -31 | 1.5% | -19% | 2 | 1 | 2 | -2.2
CCN(Cc1ccccc1)C(=O)C1CCN(Cc2sccc2C)CC1 | -13 | -1.7% | -1% | 4 | 8 | -17 | -0.5
CCOC(=O)c1csc(NC(=O)c2ccc(N3C(=O)CCC3=O)cc2)n1 | -5 | 0.2% | 10% | 0 | -1 | 6 | 0.2
O=C(Nc1ccc2[nH]ncc2c1)c1ccccc1Br | -4 | -1.5% | 6% | 22 | 2 | -12 | 4.6
O=C(Nn1cnnc1)c1cc2c(s1)CCCC2 | 0 | -0.2%[38.3 µM] | 14% | 4 | -3 | 0 | 3.6
CC(C)Cn1cc(C(=O)N2CCC(C)CC2)c2c3ccccc3n(C)c2c1=O | -1 | 0.9% | -9% | 1 | -19 | -1 | -5.1
COc1ccc(CC(NC(C)=O)C(=O)NC2CCN(c3nnnn3-c3ccccc3)CC2)cc1 (stereo not given) | -14 | 1.0% | 1% | 26 | 5 | 0 | -0.6
COc1ccc(C(=O)N2CCCC2(C)C(=O)O)cc1C(F)(F)F (stereo not given) | -10 | 1.1% | / | 18 | / | 5 | -4.9
O=C(O)c1cccc(Nc2nc(Nc3ccccc3)nc(N3CCCC3)n2)c1 | -3 | 0.6% | -8% | -18 | 2 | / | -3.0
CC1CN(c2ncnc3c2oc2ccccc23)CC(C)O1 (stereo not given) | -30 | 0.8% | 4% | 0 | -9 | -1 | -1.1
CCOC(=O)c1cnc2c(cnn2C)c1NCCCN(C)C | -10 | -0.4%[38.3 µM] | 10% | -3 | 1 | 2 | -5.1
CC(C)(C)c1cc(OC(=O)c2ccccc2F)ccc1O | 8 | -0.6% | 17% | 12 | -8 | -12 | -17
O=C1CC(C(=O)N2CCCc3ccccc32)CN1c1ccc(Cl)cc1 (stereo not given) | -1 | -1.7% | -6% | -3 | -11 | 0 | -4.0
COc1ccc(N(CC(=O)Nc2c(C)n(C)n(-c3ccccc3)c2=O)S(=O)(=O)c2ccc(F)cc2)cc1 | -6 | -0.5% | 11% | 12 | 14 | -12 | -1.2
O=c1c(OC2OC(CO)C(O)C(O)C2O)c(-c2ccc(O)c(O)c2)oc2cc(O)cc(O)c12 (stereo not given) | -1 | 2.0% | -13% | -22 | 1 | -1 | 0.6
CC(C)(C)c1ccc(NC(=O)C2CCCN(c3cnccn3)C2)cc1 (stereo not given) | -7 | -0.1%&0.7% | -1% | -9 | -3 | -3 | -0.8
CC[C@@H](C)[C@H](N)C(=O)NC[C@H]1O[C@@H](n2cnc3c(N)ncnc32)[C@H](O)[C@@H]1O | -4 | 3.6% | / | 6 | / | -24 | -4.6
CCOc1ccc(C(=O)CCCC(=O)c2ccc(OCC)cc2)cc1 | -5 | 5.9% | 15% | -1 | -6 | 13 | -1.5
CCN(CC)c1ccc(/C=N/NS(=O)(=O)c2ccc(CNC(C)=O)cc2)cc1 | -4 | 0.5% | -7% | 8 | ? | 10 | -2.8
CN(CC1CCCN(CCc2ccc(F)cc2)C1)C(=O)CCC(N)=O (stereo not given) | -4 | 0.3% | 17% | -15 | -18 | -10 | -2.3
O=C(NCc1cccnc1)c1ccc2c(c1)C(=O)N(Cc1ccccc1)C2=O | -15 | -0.4% | 14% | 17 | -11 | -2 | -2.1
COc1ccccc1N1CCN(S(=O)(=O)c2c[nH]c(=O)[nH]c2=O)CC1 | -36 | 0.9% | / | -2 | -3 | 0 | -2.7
CC(C)CNC(=O)NC1(C(F)(F)F)Oc2ccccc2O1 | -8 | 0.3% | 15% | 0 | -11 | 13 | 4.9
Cc1nc(NC(=O)COC(=O)C2CC3CCCC(C2)C3=O)c(Cl)cc1Cl (stereo not given) | -6 | 1.8% | / | -15 | / | -2 | -3.5

Record cards (already shown).
Record of O=C(Nc1ccc2[nH]ncc2c1)c1ccccc1Br → D2 potentiator = -4; PINK1 modulator = -1.5%; Sfp PPTase inh = 6%; Six1-Eya2 blk = 22; TRPV1 PAM = 2; CtBP-E1A inh = -12; D2 ag = 4.6
Record of CC(C)(C)c1ccc(NC(=O)C2CCCN(c3cnccn3)C2)cc1 (stereo not given) → D2 potentiator = -7; PINK1 modulator = -0.1%&0.7%; Sfp PPTase inh = -1%; Six1-Eya2 blk = -9; TRPV1 PAM = -3; CtBP-E1A inh = -3; D2 ag = -0.8

The listing continues.
SMILES | D2 potentiator | PINK1 modulator | Sfp PPTase inh | Six1-Eya2 blk | TRPV1 PAM | CtBP-E1A inh | D2 ag
CCOC(=O)CC(=O)CSc1nc(-c2ccccc2)cc(-c2ccc(Cl)cc2)c1C#N | -10 | 3.5%[38.3 µM] | ? | 13 | 0 | 9 | -2.1
CCOC(=O)CN1C(=O)C(O)(C2CCc3ccccc3C2=O)c2ccccc21 (stereo not given) | -7 | 0.4% | 13% | 3 | 2 | 13 | -3.6
O=C(N/N=C/c1ccc(N2CCOCC2)cc1)c1ccc(O)cc1 | -5 | 1.3% | 0% | 2 | -5 | / | -0.6
COc1cccc(C(=O)OCC(=O)c2ccc(Br)s2)c1 | -20 | 0.0% | 1% | 23 | -2 | -2 | 1.5
CN(C)S(=O)(=O)c1ccc(C(=O)NCC(=O)N/N=C/c2ccco2)cc1 | -4 | -1.5% | 9% | 8 | 0 | 0 | -5.0
COc1ccccc1-n1cc(-c2ccccc2)[nH]c1=S | -13 | 4.4% | -20% | -9 | 1 | / | 1.3
Cc1cc(C(=O)Nc2ccc(N3CCCC3)c(Cl)c2)ccc1[N+](=O)[O-] | -11 | 6.8% | 20% | ? | 5 | ? | 2.6
O=C1C=C(c2cc3ccccc3o2)C[C@@H](c2ccc(F)cc2)C1 | -4 | 1.5% | / | -9 | 2 | / | 2.8
CCN(CC)CCNC(=O)c1nn(-c2ccc(Cl)cc2)c2c1CCc1cc(OC)ccc1-2 | -35 | -7.0% | / | -10 | / | 3 | -5.8
O=C(CN1CCOCC1)NNC(=S)Nc1ccccc1 | -3 | 0.2% | -21% | -13 | 2 | / | -4.3
CCOc1ccc(C(=O)NC(=S)Nc2cccc(NC(=O)c3ccco3)c2)cc1[N+](=O)[O-] | -7 | 4.2% | 7% | -13 | 0 | -14 | -5.8
O=C(CCc1ccccc1)c1ccc2c(c1)OCCCO2 | -1 | -0.3% | -10% | 39 | -7 | 39 | -2.1
CCCCc1cc(=O)oc2cc(OCC(=O)N(CC)CC)c(Cl)cc12 | -7 | 1.4% | -12% | 9 | -13 | 6 | 0.2
CCOc1ccc(OCC)c(NC(=O)CNS(=O)(=O)c2cccs2)c1 | 2 | -1.1% | -5% | 1 | -17 | 8 | -1.6
CCN(C(=O)Cn1c(Cl)nc2c1c(=O)n(C)c(=O)n2C)C1CCCCC1 | -1 | 4.6% | / | -5 | / | / | 2.3
CC1CCN(S(=O)(=O)c2ccc(S(=O)(=O)NCc3ccccc3)cc2)CC1 | 14 | 0.9%[38.3 µM] | 9% | 4 | -18 | 6 | 3.7
CC1(C)CC(C)(c2ccc(O)cc2O)N(c2ccc3ccccc3c2)C(=S)N1 (stereo not given) | -14 | -2.7% | 25% | -27 | -1 | -17 | -5.0
Cc1cccc(C(=O)NC(C)C(=O)NC(c2nc3ccccc3[nH]2)C(C)C)c1 (stereo not given) | -4 | 2.0% | / | 1 | 27 | -2 | -1.1
O=C1C2C3C=CC(C3)C2C(=O)N1c1cccnc1 (stereo not given) | 2 | / | 10% | 8 | 6 | 8 | -0.4
Cc1c(Cl)cccc1NC(=O)CCN1C(=O)NC(C)(C)C1=O | -8 | -0.5% | / | -3 | -1 | 11 | -2.2
CCOC(=O)N1CCN(C(=O)/C(=C/c2cccs2)NC(=O)c2cccs2)CC1 | -9 | 0.2% | 17% | 5 | 10 | 0 | -2.5
COc1cnc(SCC(=O)O)[nH]c1=O | 11 | 0.2% | 13% | 6 | -4 | -8 | 3.0
O=C(Cc1ccccc1)NC(=S)Nc1cccc(C(F)(F)F)c1 | -9 | -1.5% | 21% | 4 | -3 | 8 | 2.7
COc1cc(C=C2C(=O)c3ccccc3C2=O)cc(OC)c1OC | -6 | 5.0% | 4% | 1 | 6 | 12 | -2.0
O=C(NCC(c1ccco1)N1CCc2ccccc2C1)C(=O)Nc1ccccc1F (stereo not given) | 13 | 2.1% | / | -9 | -11 | 4 | -1.8

Further records.
SMILES | D2 potentiator | PINK1 modulator | Sfp PPTase inh | Six1-Eya2 blk | TRPV1 PAM | CtBP-E1A inh | D2 ag
Cc1ccc(C(=O)N(C)CC(=O)Nc2cccc(C)c2C)o1 | -11 | -0.9% | 2% | 0 | 23 | / | -2.8
CCCCCCCOC(=O)c1ccc(OC(=O)c2cccnc2)cc1 | -5 | -3.9%[38.3 µM] | ? | -3 | 10 | 7 | 1.5
Cc1c(Cl)cccc1NC(=O)NCc1cccnc1 | -25 | -0.9% | 0% | 4 | -19 | 2 | -5.4
O=C(NCCO)c1ccc2[nH]c3ccccc3c2c1 | -19 | -3.4% | 20% | 5 | -11 | -3 | -0.5
COc1cccc(-c2cc3nc(C)c(C)c(N4CCN(C(=O)c5ccoc5)CC4)n3n2)c1 | 1 | 1.5% | / | -3 | / | 5 | -1.2
CCC1Sc2ccc(S(=O)(=O)CCC(=O)Nc3ccc(C(=O)OC)cc3)cc2NC1=O (stereo not given) | -4 | 0.7% | 15% | -2 | -3 | -5 | 4.9
Cc1ccc(C(C)C)cc1OCCOCCN1CCCC1 | -49 | 0.1% | -5% | -1 | 17 | 9 | -2.3
C=CCOC(=O)C1=C(C)N=C2SCCC(=O)N2C1/C=C/c1ccccc1 (stereo not given) | -11 | 2.6% | 4% | -6 | 7 | / | -12
Cc1ccc(C(=O)n2c3ccccc3c3ccccc32)cc1 | -18 | ? | -17% | 5 | 0 | 12 | -2.9
